# Source: PubChem BioAssay
# Lassa entry inh = Lassa virus entry inhibition; Lassa virus pseudotype entry inhibition, cell reporter; control for the full effect not named in the record; Potency, µM (series often up to 37.9 µM), inactives show at the highest dose activity change, negative = inhibition, most hits filed as inhibitors; 300,000 tested, 1.2% active; active means well fitted inhibition curve with a large enough effect; inconclusive means small, poorly fitted or top-dose-only effect, or effect the other way; inactive means flat fitted curve, though single readings scatter; tested in HEK293 cells; also: % is scaled to controls: 0 for no effect and ±100 for the full control effect; nearly all actives have a fitted effect of over 50% in size; luciferase read-out
# Cruzain noTriton = inhibitors of Trypanosoma cruzi cruzain without detergent; P25779; purified cruzain, Z-FR-AMC fluorescence, no detergent; Potency, µM, for inactives: max response, negative = inhibition, most hits filed as inhibitors; 200,000 tested, 2.3% active;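 also: plate controls were enzyme without inhibitor for no effect and buffer without enzyme for full effect; nearly all actives have a fitted effect of over 40% in size; top concentration of the series not given in the record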
# Target sequence (P25779 123-467 limits assumed): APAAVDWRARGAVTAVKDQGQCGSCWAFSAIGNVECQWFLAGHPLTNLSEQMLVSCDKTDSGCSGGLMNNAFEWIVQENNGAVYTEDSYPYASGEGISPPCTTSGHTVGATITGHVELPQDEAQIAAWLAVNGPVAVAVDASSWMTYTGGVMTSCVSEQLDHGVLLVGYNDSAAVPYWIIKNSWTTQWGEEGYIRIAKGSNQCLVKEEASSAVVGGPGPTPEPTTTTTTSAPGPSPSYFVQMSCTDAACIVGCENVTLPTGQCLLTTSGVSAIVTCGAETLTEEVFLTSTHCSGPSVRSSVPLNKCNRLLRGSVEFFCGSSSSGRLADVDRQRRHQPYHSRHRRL
#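 Purified cruzain at 1.5 nM, pre-incubated 15 min with compound at room temperature in 100 mM sodium acetate pH 5.5, 5 mM DTT, 0.00005% Triton X-100. Reaction started with 2 uM Z-FR-AMC; AMC fluorescence increase over 60 s gives rate.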
# Cruzain Triton = cruzain (T. cruzi) inhibition with detergent; purified cruzain, Z-FR-AMC fluorescence, 0.01% Triton; Potency, µM, for inactives: max response, negative = inhibition, most hits filed as inhibitors; 200,000 tested, 0.43% active;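 also: plate controls were neutral wells for no effect and buffer without enzyme for full effect; nearly all actives have a fitted effect of over 40% in size; top concentration of the series not given in the record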
#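 Cysteine protease activity tested under reducing, mildly acidic conditions (100 mM sodium acetate pH 5.5, 5 mM DTT) plus 0.01% Triton X-100. Cruzain 1.5 nM; substrate Z-FR-AMC 2 uM; 15 min compound preincubation at room temperature.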
# SARS PLpro yeast = blocks SARS-CoV papain-like protease in a yeast assay; S. cerevisiae expressing SARS-CoV PLpro, growth rescue; control for the full effect not named in the record; Potency, µM (series often up to 32.9 µM), without a hit: at the highest dose activity, positive = growth rescue; 330,000 tested, 0.19% active; AID 485353; active means well fitted rising curve with a large enough effect; inconclusive means small, poorly fitted or top-dose-only effect; inactive means no such curve, though single readings can be large or run the other way; also: 0% is about no effect; nearly all actives have a fitted effect of over 55% in size; growth read by luminescence after 48 h
# RE007 growth inh = less growth of the S. pombe RE007 Vpr strain | S. pombe RE007 Vpr strain, BacTiter-Glo ATP luminescence, 24 h; control for the full effect not named in the record | Potency, µM (highest dose often 92.2 µM), inactives show top-dose activity change, negative = less growth | 360,000 tested, 0.21% active | AID 651644; active = well fitted falling curve with a large enough effect; inconclusive = small, poorly fitted or top-dose-only effect; inactive = no such curve, though single readings can be large or run the other way;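 also: % is scaled to controls: 0 for no effect and ±100 for the full control effect; nearly all actives have a fitted effect of over 50% in size; the assay follows cell death caused by Vpr and the record does not say whether a fall means rescue or toxicity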
#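 Fission yeast RE007 carrying one integrated HIV-1 vpr copy, seeded at OD 0.01 in PMG+AL medium with 23 nL pinned compound. Grown 24 h at 30 degrees; viability read by BacTiter-Glo luminescence after 5 min.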
# Marburg entry inh = inhibitors of Marburg virus binding or cell entry; 300,000 tested, 1.8% active; Marburg virus pseudotyped entry inhibition, cell reporter; control for the full effect not named in the record; about a third of the inactives were read at about 46 µM; Potency, µM (series often up to 37.8 µM), for inactives: at the highest dose activity change, negative = inhibition, actives largely listed as inhibitors; active = well fitted inhibition curve with a large enough effect; inconclusive = small, poorly fitted or top-dose-only effect, or effect the other way; inactive = flat fitted curve, though single readings scatter; tested in HEK293 cells; about a fifth of its hits are not listed in these tables; also: % is scaled to controls: 0 for no effect and ±100 for the full control effect; luciferase read-out
# 2A StopGo = lowers the luciferase signal of an FMDV 2A StopGo reporter; human cells with a luciferase reporter of 2A StopGo recoding; control for the full effect not named in the record; AID 1159524; 410,000 tested, 1.2% active; Potency, µM (top dose mostly 57.9 µM), without a hit: top-dose signal change, negative = less light; active = well fitted falling curve with a large enough effect; inconclusive = small, poorly fitted or top-dose-only effect; inactive = no such curve, though single readings can be large or run the other way; tested in HEK293T cells; also: % is scaled to controls: 0 for no effect and ±100 for the full control effect; nearly all actives have a fitted effect of over 45% in size; luciferase light after 4 h
# NS1 inh = inhibitors of influenza NS1 protein function. S. cerevisiae slowed by influenza A NS1, growth recovery by OD600. AID 2326. 270,000 tested, 0.4% active. Potency, µM (top dose mostly 46.1 µM), without a hit: at the top dose activity, positive = more growth; active means well fitted rising curve with a large enough effect; inconclusive means small, poorly fitted or top-dose-only effect; inactive means no such curve, though single readings can be large or run the other way; also: nearly all actives have a fitted effect of over 50% in size
#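 OD600 was taken as the measure of yeast growth restored by compound in an NS1-expressing S. cerevisiae strain. Cells had been washed out of glucose medium and diluted 1:100 into galactose -URA medium, pH 6.0.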
# * marks the source's active call; other numbers are inactive results; ? = inconclusive; / = no result given; & = joins results of further samples; [ ] = remark or other dose. Unless noted, calls follow the shape of the dose curve; as a rule, active = well fitted curve in the direction sought with a large enough effect; inconclusive = small, poorly fitted or top-dose-only effect, or another doubt; inactive = no such curve, though single readings can be large; an effect the other way counts as inactive or inconclusive. Potency is read from the fitted curve at half-maximal effect.
mol	Lassa entry inh	Cruzain noTriton	Cruzain Triton	SARS PLpro yeast	RE007 growth inh	Marburg entry inh	2A StopGo	NS1 inh
CC1CCCN(C(=S)NCc2ccccc2)C1 (stereo not drawn)	?	5%	-1.7%	17%	/	?	37%[activator]	-12%
COc1ccc(CCNC(=O)CN(C2CCCCC2)S(C)(=O)=O)cc1	18%	-6%	4.7%	-2%	3%	17%	-5%	-4%
CCCOc1ccc(C(=O)N2CCCC2)cc1OC	-16%	1%	-0.2%	4%	-10%	-8%	5%	9%
NNc1nc2c(Cl)ccc(Cl)c2s1	-2%	?	-2.0%	-25%	?	-7%	-18%	2%
COc1ccc(CN(Cc2ccco2)c2cnc(S(C)(=O)=O)nc2C(=O)Nc2ccc(F)cc2)cc1	-23%[46.1 µM]	-11%	-3.5%	/	/	-25%[46.1 µM]	5%	/
O=C(NCCN1CCN(Cc2ccc([N+](=O)[O-])cc2)CC1)C(=O)Nc1ccccc1	22%	-19%	-6.3%	-1%	-10%	-6%	/	8%
COC(=O)Cn1cc(/C=C2\C(=O)NC(=O)N(c3ccccc3)C2=O)c2ccccc21	?	/	/	-4%	0%	1%[46.1 µM]	-30%	-29%
COc1ccc(CCNC(=O)CSc2nnc(-c3ccccc3)c3ccccc23)cc1OC	-7%	-2%	-6.1%	-2%	-1%	-4%	?	-1%

# The list continues:
mol	Lassa entry inh	Cruzain noTriton	Cruzain Triton	SARS PLpro yeast	RE007 growth inh	Marburg entry inh	2A StopGo	NS1 inh
Cc1c(C(=O)OC(C)C)[nH]c2c1C(=O)CC(C)(C)C2	3%	-5%	5.1%	-6%	5%	-26%	/	-5%
COc1cc2nc(NCc3ccc(C)cc3)n3nc(-c4ccccc4)nc3c2cc1OC	/	-1%	1.7%	/	/	11%[46.1 µM]	-28%	/
CCOc1cc(C(C#N)N2CCCCC2)ccc1OC (stereo not drawn)	11%	-13%	0.2%	6%	-9%	2%	-4%	14%
CCN(CC)S(=O)(=O)c1ccc(NC(=O)CCNC(=O)c2ccccc2)cc1	?	/	/	6%	11%	?	-22%	-6%
COc1ccc(CN2CCCN(CC(=O)Nc3ccc4c(c3)OCCO4)S2(=O)=O)cc1	-29%[46.1 µM]	0%	-2.9%	/	/	/	-9%	/
Cn1c(=O)c2c(nc(CN3CCN(C(=O)c4ccco4)CC3)n2CCCO)n(C)c1=O	/	/	/	3%	5%	/	-7%	13%
COc1ccc(CNC(=O)CN(C)c2nn3c(=O)cc(C)nc3s2)cc1	5%[46.1 µM]	-4%	-0.8%	/	/	-10%[46.1 µM]	1%	/
COC(=O)c1ccc(Cn2cnc3c(cnn3-c3ccc(F)cc3)c2=O)o1	12%	-3%	0.5%	4%	?	3%	-28%	-8%

# Next part
mol	Lassa entry inh	Cruzain noTriton	Cruzain Triton	SARS PLpro yeast	RE007 growth inh	Marburg entry inh	2A StopGo	NS1 inh
CCOC(=O)c1ccc(NC(=O)CC2C(=O)N(c3cccc(C)c3)C(=O)N2CCOC)cc1 (stereo not drawn)	8%[46.1 µM]	?	-2.4%	/	/	?	-17%	/
CCC(C)c1ccc(OCCn2ccnc2)cc1 (stereo not drawn)	10%	2%	1.1%	-12%	-4%	?	-26%	0%
Cc1c(Cl)cccc1NC(=O)CSC(C)c1nc2ccccc2c(=O)[nH]1 (stereo not drawn)	0%	/	/	-6%	22%	-8%	-11%	13%
CCOC(=O)N1CCN(c2nc(SC)nc3sc4c(c23)CC(C)(C)OC4)CC1	3%	?	-4.2%	4%	15%	18%	?	-55%
Nc1ccc2ncccc2c1	-3%	-7%	1.7%	10%	-4%	16%	15%	-4%
O=C(O)CCC(=O)N1CCc2cc(S(=O)(=O)N3CCCCC3)ccc21	0%	-11%	4.6%	5%	5%	9%	7%	-8%
COc1ccc(OC)c(NC(=O)CCc2nnc3ccc(NCc4ccco4)nn23)c1	/	/	/	0%	-6%	/	-3%	7%
COC(=O)C1CCCCN1C(=O)c1ccc2oc(Cc3ccccc3)nc2c1 (stereo not drawn)	-2%	/	/	-2%	0%	-4%	24%	-19%

# The list goes on:
mol	Lassa entry inh	Cruzain noTriton	Cruzain Triton	SARS PLpro yeast	RE007 growth inh	Marburg entry inh	2A StopGo	NS1 inh
COc1ccc(OCC(=O)N2CCN(C(=O)c3cccs3)CC2)cc1	-22%	-1%	-1.0%	4%	-7%	16%[46.1 µM]	12%	0%
N#Cc1ccc(Cn2c(=O)c(C#N)c3n(c2=O)CCC3)cc1	0%	2%	2.3%	1%	-9%	1%	-10%	3%
COc1cccc(OC)c1NC(=O)c1nc2c(nnn2Cc2ccccc2Cl)c(=O)[nH]1	-1%	/	/	1%	-6%	3%	4%	/
Cc1oc(-c2cccc(Cl)c2)nc1CN1CCC(C(=O)NC2CC2)CC1	/	/	/	1%	4%	/	-7%	-9%
CCN1C(=O)C2(C(C#N)=C(N)Oc3c2c(C)nn3-c2ccccc2)c2ccccc21 (stereo not drawn)	-1%	5%	-9.6%	-5%	-21%	-2%	-13%	-98%
Cc1ccc(C)c(S(=O)(=O)N2CCN(CC(=O)Nc3sccc3C#N)CC2)c1	-5%	4%	-5.4%	19%	-1%	-20%	-11%	-2%
CC1CCN(C(=O)c2ccccc2NC(=O)c2cccc(S(=O)(=O)N3CCOCC3)c2)CC1	1%	7%	5.3%	9%	1%	9%	4%	-1%
CCOC(=O)c1ccc(NC(=O)CC2Nc3ccccc3NC2=O)cc1 (stereo not drawn)	-13%[46.1 µM]	13%	-5.3%	/	/	?	2%	/

# Only NS1 inh and Cruzain Triton, for 4 of the compounds above:
smiles	NS1 inh	Cruzain Triton
COc1ccc(CN2CCCN(CC(=O)Nc3ccc4c(c3)OCCO4)S2(=O)=O)cc1	/	-2.9%
Cn1c(=O)c2c(nc(CN3CCN(C(=O)c4ccco4)CC3)n2CCCO)n(C)c1=O	13%	/
COc1ccc(CNC(=O)CN(C)c2nn3c(=O)cc(C)nc3s2)cc1	/	-0.8%
COC(=O)c1ccc(Cn2cnc3c(cnn3-c3ccc(F)cc3)c2=O)o1	-8%	0.5%

# Next section
mol	Lassa entry inh	Cruzain noTriton	Cruzain Triton	SARS PLpro yeast	RE007 growth inh	Marburg entry inh	2A StopGo	NS1 inh
COc1cc(CN2CCN(c3ccc(C)cc3)CC2)cc([N+](=O)[O-])c1O	8%	-6%	-5.2%	11%	1%	0%	-14%	-7%
C[C@H]1C=C(C(=O)NCc2ccccc2)O[C@@H](OCc2ccc(CO)cc2)C1	/	/	/	-2%	5%	/	25%	-3%
N=C1C(c2nc3ccccc3s2)=C(O)CN1NC(=O)c1ccco1	/	/	/	1%	13%	/	1%	-1%
CS(=O)(=O)NCc1nnc(SCc2ccc(C(F)(F)F)cc2)o1	19%	/	/	0%	5%	13%[46.1 µM]	-6%	-2%
O=C(CSc1nnc(NC(=O)c2c(F)cccc2F)s1)NCc1ccccc1	2%[46.1 µM]	/	/	3%	1%	-9%[46.1 µM]	7%	-14%
COc1cc([N+](=O)[O-])ccc1NC(=S)NNC(=O)c1ccc2c(c1)OCO2	/	/	/	-2%	-3%	/	-5%	2%
CCOc1cc(/C=N/NC(=O)c2cc(C3CC3)[nH]n2)ccc1O	0%	/	/	3%	4%	-6%[46.1 µM]	-9%	-1%
CC(NC(=O)CCc1nnc(Cc2cccc(C(F)(F)F)c2)o1)C1CC1 (stereo not drawn)	2%[46.1 µM]	/	/	0%	1%	?	29%	-1%

# Continuation:
mol	Lassa entry inh	Cruzain noTriton	Cruzain Triton	SARS PLpro yeast	RE007 growth inh	Marburg entry inh	2A StopGo	NS1 inh
COc1ccccc1/C=C/C(=O)Nc1ccc(S(=O)(=O)Nc2cc(C)nc(C)n2)cc1	-2%	/	/	1%	-7%	-1%	50%[activator]	3%
COC(=O)C(NC(C)=O)(Nc1nc(C)cs1)C(F)(F)F (stereo not drawn)	-9%	-1%	8.3%	-2%	19%	15%	-13%	-16%
COc1cccc(NC(=O)C2CCCN(c3ncnc4onc(-c5ccc(F)cc5)c34)C2)c1 (stereo not drawn)	23%[46.1 µM]	16%	-5.9%	/	/	/	-12%	/
CC(=O)Oc1ccc(/C=C2/Oc3ccccc3C2=O)cc1	?	/	/	0%	-15%	20%	43%[activator]	-31%
C=CCSC1=N/C(=C\c2cccnc2)C(=O)N1c1ccc(OC)cc1	-3%	-14%	-13%	12%	12%	?	?	0%
CSc1nc2c(c(=O)[nH]1)CCCC2	9%	2%	4.1%	14%	1%	4%	-13%	0%
CCn1ccc(C(=O)NC2C(=O)N3C(C(=O)O)=C(C)CSC23)n1 (stereo not drawn)	-15%	8%	0.9%	2%	0%	11%[46.1 µM]	10%	-5%
Nc1ccc2nc(-c3ccccc3)cnc2c1	?	/	/	/	-17%	?	-4%	/

# (next part)
mol	Lassa entry inh	Cruzain noTriton	Cruzain Triton	SARS PLpro yeast	RE007 growth inh	Marburg entry inh	2A StopGo	NS1 inh
CC(C(=O)O)N(C(=O)c1ccccc1)c1ccc(F)c(Cl)c1 (stereo not drawn)	9%[46.1 µM]	/	/	0%	17%	1%&1%[46.1 µM]	6%	-6%
CCCCSc1nc2c(cnn2-c2ccc(F)cc2)c(=O)[nH]1	/	-5%	-2.7%	8%	-17%	/	-14%	1%
CCOc1ccccc1OCCCn1c(-c2ccc(Cl)cc2)nc2ccccc2c1=O	8%[46.1 µM]	-14%	-0.4%	/	/	8%[46.1 µM]	0%	/
CCN(CC1CCCO1)C(=O)C1CCN(C2CCN(Cc3ccccc3C)CC2)CC1 (stereo not drawn)	-20%	/	/	4%	0%	-19%	?	0%
CCOc1oc(-c2ccc(OC)cc2)nc1C(F)(F)F	-1%	3%	1.7%	-2%	4%	19%	26%	6%
O=C(NNc1nc2ccccc2nc1C(F)(F)F)c1ccccc1	6%	-2%	-1.1%	-4%	12%	?	-4%	-11%
COc1cc(C(=O)NC(=S)N2CCCCCC2)cc(OC)c1OC	14%	/	/	1%	-21%	-12%[46.1 µM]	2%	/
CN(C)c1ccnc(-n2cccc2/C=N/OCc2ccccc2)c1C#N	-5%	3%	-5.0%	-10%	9%	20%	-19%	-49%
